Screening data (PubChem BioAssay)
NPYLR7 ag = activates Aedes aegypti NPYLR7 receptor. HEK293T NPYLR7/Galpha15, GCaMP6s calcium fluorescence. activation, % at 10 µM. 0.15% of 270,000 active; in the data active = activation above about 40%;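 note: 0% = vehicle and 100% = reference agonist at the receptor; some compounds past the cut are filed as inactive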
NPYLR7 ag max-min = recorded beside NPYLR7 ag, whose call it bears; activation, %; measured here: Max-Min RFU normalised activation; some inactives read as strong as hits;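 span of the calcium signal over five minutes; 0% = vehicle and 100% = native peptide agonist; compound fluorescence can raise it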
* marks the source's active call; other numbers are inactive results; & = joins results of further samples. The list is partial; the hit share may differ from the screen's.

Molecule | NPYLR7 ag max-min | NPYLR7 ag
CCN(CC)c1ccc(CN(CCOC)C(=O)NC(C)(C)C)c(OS(=O)(=O)CC)c1 | 4 | 3
S=C(Nc1ccccc1Oc1ccccc1)NN1CCCCC1 | 4 | 6
c1cnc(N2CCOCC2)c(CNCc2cccn2-c2nccs2)c1 | 5 | 6
CCOC(=O)C1CCN(C(=O)c2ccc(CSc3nc(COC)cc(N4CCN(CC)CC4)n3)cc2)CC1 | 4 | 3
CNc1ncccc1CN1CCN(c2cc(C(C)C)nc(C)n2)CC1 | -10 | 2
CCc1cc(-c2[nH]ncc2-c2ccc3c(c2)OCCO3)c(O)cc1OC | -3 | -2
COC(=O)CN1CCCN(S(=O)(=O)c2ccc(Cl)cc2C)CC1 | 1 | 1
Clc1ccc(-c2noc(CSc3nncs3)n2)cc1 | 18 | -1
Cc1cc(C)nc(Nn2ccc3c(cnc4nc(C)nn43)c2=O)n1 | 9 | 4
COc1ccc(C)cc1NC(=O)C(c1ccccc1)N1CCCC1 (stereo not drawn) | -1 | 0
CC(C)c1ccc(COc2cccnc2C(O)NCCCO)cc1 (stereo not drawn) | -7 | -4
CCOCCCNC(=O)c1cc(NC(=O)c2cc(Cl)cc(Cl)c2)ccc1N1CCC(Cc2ccccc2)CC1 | -7 | 1
Cc1[nH]cnc1C(=O)N1CCC(c2ccncc2)CC1 | -7 | 2
CC(C)CC(C(=O)Nc1ccc(Cl)cc1Cl)N1C(=O)c2ccccc2C1=O (stereo not drawn) | -7 | -3
CSc1nnc(-c2cccc(S(=O)(=O)N3CCCCC3)c2)n1C | 22 | 23
COCCOc1nc(-c2ccc(Cl)c(Cl)c2)n(-c2ccc(N)cc2)n1 | -12 | -4
Cn1cc(-c2cccc(NC(=O)Cc3cccc(F)c3)n2)cn1 | 3 | 7
CCCCN(C(=O)Cc1c(C)n[nH]c1C)c1c(N)n(CCC)c(=O)[nH]c1=O | 13 | 6
FC(F)(F)c1cccc2c(N3CCN(C4CCOCC4)CC3)ccnc12 | -4 | 0
O=C(O)C(CCCCN1C(=O)/C(=C\c2cccc([N+](=O)[O-])c2)SC1=S)N1C(=O)/C(=C\c2cccc([N+](=O)[O-])c2)SC1=S (stereo not drawn) | 13 | 11

(further entries)
Molecule | NPYLR7 ag max-min | NPYLR7 ag
O=C(CSc1nnc(SCC(=O)NC2CCCC2)s1)NC1CCCC1 | 7 | 10
CCOc1cc(C(=O)OCc2nnc(-c3ccccc3)o2)cc(OCC)c1OCC | -2 | 0
Clc1ccccc1-c1cc(C2CCN(Cc3cnc[nH]3)CC2)[nH]n1 | 10 | 25
CCOc1ccc(-n2nnc(C(=O)N(C)C3CCS(=O)(=O)C3)c2C)cc1 (stereo not drawn) | 9 | 4
COc1ccc(Nc2nc(N)nc(CSc3nc4cc(OC)ccc4s3)n2)cc1 | -19 | -13
CC(=O)Nc1ccc(NC(=O)CSc2ccc(NC(=O)C3CC3)nn2)cc1 | -2 | -1
CN1CCCn2nc(C(=O)NCc3ccc4nonc4c3)cc2C1 | 8 | 17
COc1cc(CNC(=O)c2oc3c(F)cccc3c2C)cc(OC)c1OC | 0 | 3
CCn1nccc1NC(=O)c1ccccc1OCc1ccccc1 | -1 | 3
Cn1ccc(NC(=O)Cc2ccc(Cl)cc2)n1 | 0 | 1
Cc1ccc(-c2nnc(Nc3ccccc3)c3ccccc23)cc1S(=O)(=O)NC(C)(C)C | -19 | -14
COc1ccc(C2CCCN2C(=O)c2ccc(NC(C)=O)s2)cc1 (stereo not drawn) | 0 | 1
Cc1ccc(S(=O)(=O)c2cc3ccccc3oc2=Nc2ccc3c(c2)OCO3)cc1 | 2 | 2
CCC1Oc2cc(C(C)NC(=O)NC3CC3)ccc2NC1=O (stereo not drawn) | 4 | 7
O=C(c1ccc([N+](=O)[O-])cc1)N1CCCC(N2CCN(c3ccccc3F)CC2)C1 (stereo not drawn) | 9 | 1
O=C(CC(c1ccccc1)c1ccccc1F)NCCn1cccn1 (stereo not drawn) | -3 | 1
CC1=C(C(=O)OCC2CCCO2)C2(O)C(=O)c3ccccc3C2(O)N1 (stereo not drawn) | 4 | 7
COc1ccc(-c2nc3cc(C)ccn3c2NC(=O)C2CCCCC2)cc1OC | 4 | -4
CCCCN(C)C(=O)c1sc(=O)n(Cc2cc(C)cc(C)c2)c1C | -3 | -6
Cc1nc(Nc2ccc(F)cc2)c2c3c(sc2n1)CCC3 | 4 | 3

(cont.)
Molecule | NPYLR7 ag max-min | NPYLR7 ag
O=c1[nH]c(Cn2cnnc2)nc2ccccc12 | 2 | -2
CCCn1c(=NC(=O)C2=COCCO2)sc2cc3c(cc21)OCO3 | 2 | 4
CC(C)NC(=O)Cn1cnc2c(nnn2C)c1=O | 7 | 2
Cc1ccc2c(c1)NC(=O)c1cc(NS(=O)(=O)C(C)C)ccc1O2 | 4 | 7
CC1CN(c2nn(C)c(=O)n(C)c2=O)CC(C)O1 (stereo not drawn) | 14 | 8
CC(NC(=O)CN1CCCN(S(=O)(=O)c2ccc(F)cc2)CC1)c1ccccc1 (stereo not drawn) | 5 | -1
Cc1csc(SCc2cc(=O)c(OC(=O)c3ccc(C(F)(F)F)cc3)co2)n1 | -10 | -5
Cc1ccn2c(NCc3ccccc3)c(-c3cccc(O)c3)nc2c1 | 2&4 | 3&2
CCN(Cc1ccccc1)C(=O)c1cc2cc([N+](=O)[O-])ccc2oc1=O | -3 | -4
COc1ccc(CN2CCCC2)cc1Oc1nccnc1OC | 4 | 15
O=S(=O)(c1cccc(Br)c1)N1CCN(Cc2ccccn2)CC1 | -2 | 3
O=C(NC1CCCC1)c1cccc(N2NC(=O)C3CC=CCC3C2=O)c1 (stereo not drawn) | -9 | -6
O=C1/C(=C\c2ccc3c(c2)OCCO3)CC/C1=C\c1ccc2c(c1)OCCO2 | 7 | 8
CCOCCCn1c(=S)[nH]c2sc(C)c(C)c2c1=O | 0 | 0
COc1ccc(CCNC(=O)c2cc(-c3ccccc3F)nc3cc(-c4ccccc4)nn23)cc1OC | 5 | 7
COc1cc(CN2CCC(C(=O)Nc3cccc(-c4cccc(Cl)c4)c3)CC2)ccc1O | -2 | 2
CCc1cn[nH]c1C1CCN(C(=O)c2c(C)[nH]c3c2C(=O)CCC3)CC1 | 0 | -1
COc1ccc(C(=O)CN2C(=O)NC3(CCCCC3C)C2=O)cc1OC (stereo not drawn) | 13 | 6
COCCN=c1scc(-c2ccco2)n1N=Cc1cc(Br)c(O)c(OC)c1 | 11 | 20
COc1ccc(CC(=O)N(Cc2nc3cc(C)ccc3o2)Cc2cc(F)ccc2F)cc1 | 2 | 3

(cont.)
Molecule | NPYLR7 ag max-min | NPYLR7 ag
Cc1cccn2c(CC(=O)N3CCC(O)(CN(C)C)C3)cnc12 (stereo not drawn) | 4 | 4
COCCNC(=O)C1CCCN(C2CCN(C(=O)c3cccnc3C)CC2)C1 (stereo not drawn) | 1 | 6
O=C1CSC(c2ccc([N+](=O)[O-])cc2)N1Cc1ccccc1 (stereo not drawn) | -7 | -5
CCN(CC)CC(=O)N1N=C(c2ccc(OC)cc2OC)CC1c1ccc(C)cc1C (stereo not drawn) | 20 | 21
CCOc1ccc2oc(C(=O)OCC(=O)Nc3sc4c(c3C(N)=O)CCCC4)c(C)c2c1 | -12 | -5
CCOC(=O)N1CCC(NCCSc2cn[nH]n2)CC1 | 12 | 20
COC(=O)c1ccc2c(c1)CC(CNC(=O)c1cc(Cl)ccc1F)O2 (stereo not drawn) | 30 | 27
CC(C)N(C(=O)CSc1n[nH]c(-c2cccs2)n1)C1CCCCC1 | 17 | 22
Cc1cc(CCc2ccc(Cl)cc2)c(C(=O)O)s1 | -10 | -8
CSCCCNC(=O)c1sc2cc3c(cc2c1Cl)OCO3 | -5 | -1
Cc1c(C(=O)NC(C)(C)CO)c(C(F)(F)F)nn1C1CCCN(C)C1 (stereo not drawn) | -1 | 10
O=C1SC(c2ccccc2)=N/C1=C/c1ccco1 | 0 | 4
CCOc1ccccc1N1CCN(C(=O)CSc2nc(Cl)cc(N3CCN(C(=O)c4cccc(OC)c4)C(C)C3)n2)CC1 (stereo not drawn) | -3 | -10
O=C(c1ccco1)N1CCN(c2cc(Oc3ccc(Cl)cc3)ncn2)CC1 | -2 | 8
CCN1C(=O)C2(SC(C)(C)CN2C(=O)c2ccco2)c2cc(F)ccc21 (stereo not drawn) | 10 | 3
C=CCOc1ccc(C(F)(F)F)cc1C(=O)NC1CCN(C)CC1 | 12 | 15
CC1CC(C)CN(c2nc3nonc3nc2N2CC(C)CC(C)C2)C1 (stereo not drawn) | 7 | 13
Cc1cc(C)n(-c2cc(NCCNC(=O)C3CCCC3)ncn2)n1 | -12 | -5
CC1CN(CC(O)c2ccc(Cl)cc2)CCN1CC(O)c1ccc(Cl)cc1 (stereo not drawn) | 3 | 3
CN(CCNC(=O)C1CC(=O)N(C2CCCC2)C1)S(C)(=O)=O (stereo not drawn) | -5 | -2

Filtered by structure, the entries above with a thiophene ring, fused or not.
Molecule | NPYLR7 ag max-min | NPYLR7 ag
COc1ccc(C2CCCN2C(=O)c2ccc(NC(C)=O)s2)cc1 (stereo not drawn) | 0 | 1
Cc1nc(Nc2ccc(F)cc2)c2c3c(sc2n1)CCC3 | 4 | 3
CCOCCCn1c(=S)[nH]c2sc(C)c(C)c2c1=O | 0 | 0
CCOc1ccc2oc(C(=O)OCC(=O)Nc3sc4c(c3C(N)=O)CCCC4)c(C)c2c1 | -12 | -5
CC(C)N(C(=O)CSc1n[nH]c(-c2cccs2)n1)C1CCCCC1 | 17 | 22
Cc1cc(CCc2ccc(Cl)cc2)c(C(=O)O)s1 | -10 | -8
CSCCCNC(=O)c1sc2cc3c(cc2c1Cl)OCO3 | -5 | -1

(continued)
Molecule | NPYLR7 ag max-min | NPYLR7 ag
CC1CCC(NC(=O)c2nccnc2N)CC1 (stereo not drawn) | -3 | 0
CC(C)N(CC(=O)Nc1nc(CC(=O)Nc2ccc(F)cc2)cs1)C(=O)c1ccc(Cl)c(Cl)c1 | -1 | -11
COc1ccc(C(=O)N(CC(=O)N(Cc2ccc(F)cc2)Cc2ccc(C)s2)Cc2ccco2)cc1 | 10 | 1
CCN1CCc2cc(OC)c(OC)cc2C1C(NC(=O)c1ccccc1C)C(C)C (stereo not drawn) | 16 | 12
CCOC(=O)c1cc(C(C)(C)C)n(C2CCN(C(=O)COc3ccccc3C)CC2)n1 | 17 | 21
CCc1c(C)nn(-c2nc(C)cc(C)n2)c1OC(=O)c1ccco1 | -1 | 1
Oc1ccc(Br)cc1CN1CCN(CC2CC3C=CC2C3)CC1 (stereo not drawn) | 6 | 9
CCc1ccccc1NC(=O)Cn1nc(C(F)(F)F)c(Cl)c1C | 7 | 21
Cc1cc2nc(/C=C/c3c(C)noc3C)sc2cc1C | 1 | 2
COc1ccccc1N1C(=O)CC(N2CCN(c3ccc(F)cc3)CC2)C1=O (stereo not drawn) | -10 | -5
CCc1ncc(C(=O)N(C)CC2COc3ccccc3O2)cn1 (stereo not drawn) | 5 | 6
Cc1cccnc1CC(C)NC(=O)c1c(O)cccc1O (stereo not drawn) | -6 | -3
CCN(Cc1nc(C(C)C)cs1)CC1CCCN(CCc2cccc(OC)c2)C1 (stereo not drawn) | 0 | 2
Cc1ccc(N=Cc2nc(-c3ccccc3)oc2O)c(Br)c1 | -13 | -8
COc1ccc(C(=O)C(C)OC(=O)c2ccc(Cn3cccn3)cc2)cc1 (stereo not drawn) | 4 | 2
C=CCc1cc(C(=O)N2CC[C@H](O)[C@@H](O)C2)ccc1OC | 15 | 22
CCOC(=O)c1cn[nH]c1C(F)F | 8 | 11
CN(C)c1ccc(CCC(=O)N2CCN(c3ccccc3)CC2)cc1 | 3 | 1
COC(=O)Cn1c(=NC(=O)c2ccc(C(C)=O)cc2)sc2cc(C)ccc21 | -1 | 3
Fc1cccc(F)c1CCC1CCCN(CCc2ccccn2)C1 (stereo not drawn) | -9 | 1

(further entries)
Molecule | NPYLR7 ag max-min | NPYLR7 ag
CN1CCCC(CCNC(=O)CCC(=O)N2CCCCCC2)C1 (stereo not drawn) | 3 | 5
CNS(=O)(=O)c1ccc(CN2CCN3CCNC(=O)C3C2)cc1 (stereo not drawn) | -2 | 1
Cc1cnc(C(=O)NCc2ccc(C(=O)N(C)C)cc2)cn1 | 4 | 5
O=C(Nc1ccc2c(c1)OCO2)N1CCC(CO)(CC2CCCCO2)CC1 (stereo not drawn) | 12 | 11
CCN(CCc1ccccc1)C(=O)Nc1cccc(NC(=O)COC)c1 | -3 | -2
CCCCN(C(=O)C(C)C)c1c(N)n(CCC)c(=O)[nH]c1=O | 18 | 12
O=C(CCN1CCCCO1)N(Cc1ccc2c(c1)OCO2)C1CCCC1 | -17 | -11
Cc1cccn2c(=O)nc(SCC(=O)N3CCCc4ccccc43)nc12 | 23 | 27
CN=c1scc(-c2ccccc2)n1N=Cc1ccco1 | 0 | 0
OCC1(Cc2cccc(Cl)c2)CCCN(Cc2ccc(F)c(F)c2)C1 (stereo not drawn) | 1 | 5
Cc1nc(C)c(CC(=O)NCc2cccc(OC(F)(F)F)c2)s1 | 1 | -1
O=C1C(=O)N(Cc2ccc(Cl)c(Cl)c2)c2ccccc21 | -3 | 9
CC1CC(O)C(C)(C)N(C)C1 (stereo not drawn) | -8 | -4
NC(=O)c1csc(N2CC[C@@H](c3ccc4ccccc4c3)[C@H](O)C2)n1 | 12 | 16
CCc1nc2c(OCc3ccccc3)cccn2c1N(C)C(=O)c1ccc(OC)cc1 | 5 | -8
O=C(NCc1ccccc1)NCC1CCCN(Cc2ccccn2)C1 (stereo not drawn) | -3 | -2
O=C(c1ccc(C(F)(F)F)c(F)c1)N1CCC(CCc2ccc(-c3ccccc3)cc2)CC1 | -7 | 10
O=C(NC1C2CCOC2C12CCC2)C1(c2ccccc2)CC1 (stereo not drawn) | 0 | 1

3 structures out of the list, ordered by molar mass, smallest number first.
Molecule | NPYLR7 ag max-min | NPYLR7 ag
O=C(CCN1CCCCO1)N(Cc1ccc2c(c1)OCO2)C1CCCC1 | -17 | -11
OCC1(Cc2cccc(Cl)c2)CCCN(Cc2ccc(F)c(F)c2)C1 (stereo not drawn) | 1 | 5
O=C(c1ccc(C(F)(F)F)c(F)c1)N1CCC(CCc2ccc(-c3ccccc3)cc2)CC1 | -7 | 10
